Assay outcomes from PubChem.
Mtb bLac sens: beta-lactam sensitization of Mtb H37Rv; M. tuberculosis H37Rv growth with meropenem, percent inhibition; hits of this screen are not shown here; AID 434955; hit rate 0.27% among 330,000; inhibition, % at 25 µM;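 active means about 74% or more and at least 40 points above the plate without the antibiotic, then above 30% in a dose series; inconclusive means first-round hits that could not be retested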;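 further: growth measured after seven days incubation then overnight dye step; 0% = bacteria only wells and 100% = bacteria with antibiotic; twin plates without the antibiotic show which effects depend on it; some results filed as inactive read as strong as hits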
RecA splice inh: Mtb RecA intein splicing inhibition; P9WHJ3; cell-free RecA intein splicing, fluorescence; inhibition, %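 (about 9 µM by stock and volumes)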; hit rate 0.75% among 290,000; AID 2221; in the data active means inhibition above about 30%; inconclusive means no clear call, values can overlap the other calls;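 further: 0% = vehicle wells and 100% = reference inhibitor control wells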
Target sequence (P9WHJ3 whole entry, looked up, canonical isoform): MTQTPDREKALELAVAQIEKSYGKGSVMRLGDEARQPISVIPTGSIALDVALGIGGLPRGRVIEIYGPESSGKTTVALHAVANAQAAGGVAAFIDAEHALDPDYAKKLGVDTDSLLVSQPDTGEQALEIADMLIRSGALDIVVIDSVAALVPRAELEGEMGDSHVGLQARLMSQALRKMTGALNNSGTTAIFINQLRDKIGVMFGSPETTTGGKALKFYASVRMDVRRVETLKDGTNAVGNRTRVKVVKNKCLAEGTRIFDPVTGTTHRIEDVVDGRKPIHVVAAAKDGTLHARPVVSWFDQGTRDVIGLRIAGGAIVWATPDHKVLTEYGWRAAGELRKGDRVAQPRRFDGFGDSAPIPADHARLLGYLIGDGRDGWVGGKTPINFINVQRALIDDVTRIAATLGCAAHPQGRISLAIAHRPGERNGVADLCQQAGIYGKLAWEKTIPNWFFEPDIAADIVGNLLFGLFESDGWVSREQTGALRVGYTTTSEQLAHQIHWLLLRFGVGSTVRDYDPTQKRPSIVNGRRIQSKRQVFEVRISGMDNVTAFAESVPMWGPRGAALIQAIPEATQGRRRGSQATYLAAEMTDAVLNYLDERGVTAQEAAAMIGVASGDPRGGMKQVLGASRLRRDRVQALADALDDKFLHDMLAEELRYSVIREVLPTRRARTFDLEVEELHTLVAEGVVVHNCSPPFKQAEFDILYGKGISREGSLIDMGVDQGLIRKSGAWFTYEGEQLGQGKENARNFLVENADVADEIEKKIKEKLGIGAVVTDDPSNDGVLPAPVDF
Arbovirus anti: arbovirus infection inhibition; arbovirus infection cell-based antiviral screen; hit rate 0.37% among 200,000; inhibition, % at 10 µM; AID 1251;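 active means inhibition from about 30%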;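 further: bluetongue infection of BSR cells; cell survival read as ATP light after 72 h; 0% = infected wells without compound and 100% = uninfected wells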
Mtb growth: M. tuberculosis H37Rv growth inhibitors, H37Rv strain (AID 1626) | M. tuberculosis H37Rv growth inhibition; higher % means a stronger effect | inhibition, % at 10 µM, or IC50 in µM where a hit was titrated | hit rate 0.95% among 220,000;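 active means confirmed in a dose series; inconclusive means inhibition above 80% but not taken into the dose series; inactive means below 80% or under 30% at every dose of the series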;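 further: bacteria incubated seven days before Alamar blue readout; 0% = bacteria only wells and 100% = bacteria with antibiotic wells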
YopH inh: YopH (Yersinia) phosphatase inhibition; AID 898; inhibition, %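 (about 10 µM by stock and volumes)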; fluorescence Ex485/Em525; hit rate 0.16% among 140,000;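 active means inhibition of 50% or more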;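 further: controls were vehicle for no effect and minimum signal wells for full effect; inactives centre near -20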
An asterisk follows results filed as active; ? = inconclusive; · = no result given. Not all compounds are listed; the hit share may differ from the screen's.

SMILES	Mtb bLac sens	RecA splice inh	Arbovirus anti	Mtb growth	YopH inh
CCOC(=O)N1CCN(S(=O)(=O)c2ccc(C(=O)NNc3nc4c(C)cc(C)cc4s3)cc2)CC1	-2	-5.3	-34	-4%	-37
CCOC(=O)N1CCN(C(=O)CSCc2ccccc2Cl)CC1	-11	7.8	6	-2%	-2
COc1cccc(OC)c1C(=O)Nc1cccc(-c2ccc(N3CCOCC3)nn2)c1	-7	-2.6	·	·	·
CCn1cnc2cc(NCc3cccs3)ccc21	-6	-1.4	0	3%	·
COc1ccc(NS(=O)(=O)c2cc(NC(=O)c3cnccn3)ccc2N2CCCC2)cc1	1	2.7	-22	4%	-28
Cc1nc(-c2cc(C#N)c(=O)[nH]c2C)cs1	-5	-0.2	·	-11%	·
c1ccc(CCSc2nccn2-c2ccccc2)cc1	3	2.4	2	16%	-4
O=C(CCCN1C(=O)c2ccccc2C1=O)Nc1ccc(S(=O)(=O)N2CCCCC2)cc1	2	0.6	3	-8%	-28
COc1ccc(NC(=O)c2ccco2)cn1	-5	-1.0	·	·	·
S=C(Nc1ccccc1)Nc1nc2ccccc2n1CCOc1ccccc1	9	3.3	-9	6%	-35
COc1ccc(NC(=S)NCc2ccc(S(N)(=O)=O)cc2)c(OC)c1	-5	-0.9	-10	7%	-9
COc1ccc(CNc2cc(NCCCO)c([N+](=O)[O-])c3nonc23)cc1	-2	2.9	12	-1%	·
COc1cc(/C=C2/C(=O)NN(c3ccc(Cl)cc3)C2=O)cc(Br)c1O	92	8.4	·	·	·
Cc1ccc(N2CCN(CC3CC=CCC3)CC2)cc1 (centres undefined)	0	1.8	16	9%	-40
CSc1cccc(NC(=O)Nc2nc3c(C)cccc3s2)c1	0	-0.1	·	3%	·
COc1ccc(NC(=O)c2cc(-c3ccco3)nc3ccccc23)cc1	0	-1.1	·	·	·
COc1ccc(C(NC(=O)c2cc(OC)ccc2OC)c2ccccc2)cc1 (centres undefined)	7	12	·	·	·
CCn1c(SCC(=O)N2CCOCC2)nc2sc3c(c2c1=O)CCCC3	-1	-0.3	-14	-21%	-20
COc1ccc(OCCC(=O)c2ccc(OC)cc2)cc1	92	3.6	·	2%	·
CN(C)CCN(C(=O)c1ccc2c(c1)OCCO2)c1nc2cc3c(cc2s1)OCO3	-4	-0.5	·	·	·
O=C(Nc1ccccc1-c1ccccc1)c1cc(C(F)(F)F)cc(C(F)(F)F)c1	-1	2.0	-12	4%	-28
Cc1cc2[nH]c(=O)c(=O)[nH]c2cc1S(=O)(=O)NCc1ccccc1	0	-1.1	·	·	·
Cc1nn(-c2ccccn2)c2nc(-c3cccs3)cc(C(=O)N3CCOCC3)c12	-3	0.6	-8	2%	0
Cc1c(C)n2c(SCC(=O)Nc3cccc4ccccc34)nnc2[nH]c1=O	-1	-1.5	·	·	·
CNC(=O)c1ccc(Nc2nnc(C)c3ccccc23)cc1	-7	-0.8	-7	-8%	-11

Some of these compounds in order of formula weight, largest number first:
SMILES	Mtb bLac sens	RecA splice inh	Arbovirus anti	Mtb growth	YopH inh
CCOC(=O)N1CCN(S(=O)(=O)c2ccc(C(=O)NNc3nc4c(C)cc(C)cc4s3)cc2)CC1	-2	-5.3	-34	-4%	-37
O=C(CCCN1C(=O)c2ccccc2C1=O)Nc1ccc(S(=O)(=O)N2CCCCC2)cc1	2	0.6	3	-8%	-28
CN(C)CCN(C(=O)c1ccc2c(c1)OCCO2)c1nc2cc3c(cc2s1)OCO3	-4	-0.5	·	·	·
COc1cc(/C=C2/C(=O)NN(c3ccc(Cl)cc3)C2=O)cc(Br)c1O	92	8.4	·	·	·
COc1cccc(OC)c1C(=O)Nc1cccc(-c2ccc(N3CCOCC3)nn2)c1	-7	-2.6	·	·	·
Cc1nn(-c2ccccn2)c2nc(-c3cccs3)cc(C(=O)N3CCOCC3)c12	-3	0.6	-8	2%	0
CCn1c(SCC(=O)N2CCOCC2)nc2sc3c(c2c1=O)CCCC3	-1	-0.3	-14	-21%	-20
COc1ccc(NC(=S)NCc2ccc(S(N)(=O)=O)cc2)c(OC)c1	-5	-0.9	-10	7%	-9
COc1ccc(CNc2cc(NCCCO)c([N+](=O)[O-])c3nonc23)cc1	-2	2.9	12	-1%	·
Cc1cc2[nH]c(=O)c(=O)[nH]c2cc1S(=O)(=O)NCc1ccccc1	0	-1.1	·	·	·
COc1ccc(NC(=O)c2cc(-c3ccco3)nc3ccccc23)cc1	0	-1.1	·	·	·
CNC(=O)c1ccc(Nc2nnc(C)c3ccccc23)cc1	-7	-0.8	-7	-8%	-11
Cc1nc(-c2cc(C#N)c(=O)[nH]c2C)cs1	-5	-0.2	·	-11%	·
COc1ccc(NC(=O)c2ccco2)cn1	-5	-1.0	·	·	·

Continuation.
SMILES	Mtb bLac sens	RecA splice inh	Arbovirus anti	Mtb growth	YopH inh
O=C(c1cccn2c(=O)c3ccccc3nc12)N1CCC2(CC1)OCCO2	-6	-41	5	-11%	23
Cc1ccccc1C(=O)Nc1ccccn1	-10	-0.6	-3	-9%	3
COc1ccc(-c2ccc(-c3nnn(CC(=O)N4CCOCC4)n3)cc2)cc1	?	3.2	-8	-8%	-1
CCOC(=O)c1ccc(NC(=O)COc2ccccc2CNCCc2ccccc2)cc1	100	8.0	-19	4.8µM*	·
CNc1nc(N)c([N+](=O)[O-])c(NCCO)n1	0	-2.5	-1	-5%	-21
O=[N+]([O-])c1cc2c(cc1CN1CCN(c3ccc(F)cc3)CC1)OCO2	0	-1.4	·	·	·
O=C(COc1ccccc1-c1ccccc1)NNC(=O)NC1CCCCC1	8	2.7	2	2%	·
COc1ccccc1N1CCN(C(=O)C(Sc2ccccc2)c2ccccc2)CC1 (centres undefined)	-1	13	-7	-3%	-37
CC1CCCN(C(C(=O)Nc2ccc3c(c2)OCCO3)c2ccccc2)C1 (centres undefined)	-6	-3.6	4	1%	14
COc1ccc(C(C)(C)C)cc1NC(=O)c1ccc2c(c1)SC1=NS(=O)(=O)CCN12	-2	0.1	0	12%	·
COc1ccc(/C(C)=N/NC(=O)c2sccc2-n2cccc2)cc1	0	1.3	0	10%	·
CCOC(=O)N1CCN(C(=O)CSCc2nc(-c3ccccc3C)oc2C)CC1	-4	3.7	14	1%	2
Cc1ccc(Cl)cc1NC(=O)CN1CCOCC1	-11	3.6	·	·	·
COc1ccc(C(=O)CN2C(=O)c3ccccc3C2=O)c(OC)c1C	-3	-1.5	6	-1%	-13
CCSC(=Nc1ccccc1)C1=C(O)COC1=O	47	1.2	4	-3%	-41
O=C(Nc1cccnc1)c1ccc(Cl)c([N+](=O)[O-])c1	1	4.6	-2	1%	·
COc1ccc(Cl)c(NC(=O)NCCN2CCN(c3ccccc3)CC2)c1	-3	0.0	0	5%	-8
C=C(C)Cn1c(-c2cccc([N+](=O)[O-])c2)n[nH]c1=S	0	-4.5	4	1%	·
CC(C)(C)c1cc(CN2CCN(CCC#N)CC2)cc(C(C)(C)C)c1O	60	4.3	5	-10%	-51
CCN(CC)c1ncnc2ccc(Br)cc12	-4	-2.4	4	-1%	-64
Cc1ccccc1C(=O)Nc1ccc(C(=O)N/N=C/c2ccc(O)c(Br)c2)cc1	9	0.8	3	7%	·
Cn1cnc(S(=O)(=O)N2CCN(c3cccc(C(F)(F)F)c3)CC2)c1	-11	-0.8	·	·	·
COc1ccccc1/C=C1\SC(=S)N(CCC(=O)NCCc2ccc(O)cc2)C1=O	-4	-0.4	·	·	·
O=C(CN1C(=O)CSC1=O)Nc1ccccc1F	-5	1.1	1	-6%	-33
COC(=O)CSc1nc2c(cnn2-c2ccc(F)cc2)c(=O)[nH]1	10	-3.7	·	·	·
The list continues:
SMILES	Mtb bLac sens	RecA splice inh	Arbovirus anti	Mtb growth	YopH inh
COc1ccc(NC2CCCN(C(=O)CSc3ccccc3)C2)cc1 (centres undefined)	2	-1.3	·	·	·
O=C(Nc1ccc(-c2ccccc2)cc1)c1ccccc1	2	-0.4	·	·	·
CC(=O)Nc1ccc(OCC(O)CNC2CCCC2)cc1 (centres undefined)	·	-1.3	-2	·	-12
CSCc1cc(N2CCCC2)nc(-c2ccccc2)n1	3	-2.8	16	0%	·
O=C(Nc1ccc(NC(=O)C2CC2)nc1)c1cccnc1	29	-0.2	1	-9%	-48
CCn1c(SCC(=O)Nc2nnc(C)s2)nnc1C(C)NC(=O)c1ccccc1 (centres undefined)	-4	2.0	·	·	·
COc1ccc(-c2nnc(NC(=O)c3ccc(S(=O)(=O)N4CCCc5ccccc54)cc3)o2)cc1	81	-0.7	-28	·	-37
O=C(Nn1cnc2ccccc2c1=O)c1ccccc1	-1	-2.5	14	-4%	·
COc1cccc(CC2(CO)CCCN(Cc3ccc(OC(F)F)cc3)C2)c1 (centres undefined)	-5	0.3	·	·	·
Cn1c(=O)oc2cc(S(=O)(=O)NCCc3ccccc3)ccc21	-17	2.6	6	13%	-24
Cc1cc(/C=C2\C(=O)NC(=O)N(c3ccc(Cl)cc3)C2=O)c(C)n1C	22	2.4	6	-4%	·
C[C@@H]1CCC(=O)N(CC[C@H](Oc2ccccc2)c2ccccc2)CC1	2	9.0	·	·	·
CC(=O)c1ccccc1NC(=O)C1C2CCC(O2)C1C(=O)O (centres undefined)	-6	-4.6	12	2%	-14
Cc1ccc(C)c(OCCC(=O)OCC(=O)Nc2cccnc2Cl)c1	5	0.5	·	·	·
COc1ccc(N2CCN(C(=O)c3ccc(CNS(=O)(=O)c4ccc(C)cc4)cc3)CC2)cc1	0	-1.3	·	·	·
COc1ccc(-c2n[nH]c(=S)n2-c2ccccc2C)cc1OC	-2	-1.3	·	·	·
CCn1ccnc1CN1CCCC(CO)(Cc2cccc(OC)c2)C1 (centres undefined)	-1	-0.5	4	4%	·
Cc1cccc2sc(N(CCCN(C)C)C(=O)c3ccc(S(=O)(=O)N4CCc5ccccc5C4)cc3)nc12	-13	3.6	·	·	·
O=C(Nc1cccc(-c2cn3ccccc3n2)c1)c1cnccn1	-3	2.6	-1	-11%	30
O=C(O)/C=C/C(=O)N1N=C(c2ccco2)CC1c1ccco1 (centres undefined)	-1	5.1	·	·	·
CCCn1nnnc1NCc1cccc(OC)c1OCC	-1	-2.4	·	·	·
Brc1ccc(-c2csc(N3CCc4ccccc4C3)n2)cc1	-4	-0.5	2	-7%	-38
Cc1ccc(C(=O)NCCNC(=O)c2ccco2)cn1	-3	-1.6	·	·	·
COC(=O)c1ccc(S(=O)(=O)NNC(=O)COc2ccc(C)cc2)cc1	56	-0.7	5	6%	-5
COC(=O)[C@@]12CCCCN1[C@H](c1ccc(-c3ccccc3)cc1)[C@@H]1C(=O)N(C)C(=O)[C@@H]12	-2	-3.8	·	·	·
(cont.)
SMILES	Mtb bLac sens	RecA splice inh	Arbovirus anti	Mtb growth	YopH inh
Cc1ccc(/C=N/NC(=O)NC23CC4CC(CC(C4)C2)C3)o1	38	2.5	·	·	·
COc1ccc(-c2cc3cc(OC)c(OC)cc3c(C)n2)cc1	85	0.6	·	17%	·
CC(=O)Nc1nc(CCN2C(=O)c3ccccc3C2=O)cs1	-7	1.4	16	-6%	·
O=C(COc1ccccc1)N1CCN(C(=O)Cc2ccccc2)CC1	-6	·	8	-27%	-32
COc1ccc(/C=C2\N=C(SC)N(c3ccccc3OC)C2=O)cc1	·	-0.5	3	6%	·
Cc1nc2ccccc2nc1N1CCCC1	-4	-0.8	·	-8%	·
CNS(=O)(=O)c1cn(CC(=O)NCc2ccc(N(C)C)cc2)cc1S(=O)(=O)NC	7	-4.6	·	·	·
CCCCN(C(=O)c1cccc(C)c1)c1c(N)n(CCC)c(=O)[nH]c1=O	4	-2.3	·	·	·
Cc1nc2ccc(-c3ccccc3)cc2o1	75	0.0	2	58%	-49
C/C(=N\NS(=O)(=O)c1ccccc1)c1ccc2c(c1)OCO2	-1	2.4	16	-5%	·
CCOc1ccccc1N(CC(=O)NC1CCCCC1)C(=O)CCCC(=O)Nc1ccccn1	-11	3.2	2	4%	-25
O=[N+]([O-])c1cccc(NP(=O)(Oc2ccccc2)Oc2ccccc2)c1	6	2.4	·	·	·
COc1ccccc1NC(=O)CN1C(=O)CSC(C)C1=O (centres undefined)	-1	-1.5	-7	-2%	-10
CCOC(=O)c1cnc2ccc(C)cc2c1Nc1ccc(N2CCOCC2)cc1	20	8.1	-24	0%	-36
CC(=O)c1ccc(OCCN2CCOCC2)cc1	0	-2.0	14	2%	0
COC(=O)c1c(NC(=S)Nc2ccc(C(=O)N3CCOCC3)cc2)sc2c1CCC2	-3	2.6	-3	-2%	·
COc1ccc(-n2c(-c3ccc(F)cc3)cnc2SCC(=O)NCc2ccco2)cc1	2	17	-5	12%	-32
COc1cc(/C(O)=C(\C#N)c2nc3ccccc3[nH]2)cc(OC)c1OC	87	-1.0	·	·	·
Cc1cc(C(=O)NC2CC(C)(C)Cc3c2cnn3-c2ccccc2)n[nH]1 (centres undefined)	-1	3.9	·	·	·
